GPR55 beta-arrestin: GPR55 agonists via beta-arrestin recruitment, primary screen, imaging, U2OS cells, beta-arrestin-GFP redistribution (AID 1961); actives 0.048% (n = 290,000); activation, % at 10 µM, or EC50 in µM where a hit was titrated; U2OS GPR55 beta-arrestin-GFP redistribution imaging; higher % means a stronger effect;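 active = activation above 40% with more than 50 cells counted in the well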;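 also: U2OS osteosarcoma cells stably expressing GPR55 and beta-arrestin-GFP; plate controls were DMSO negative control for no effect and LPI positive control for full effect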
KOR beta-arrestin: KOR agonists, beta-arrestin recruitment, primary screen, cell-based, luminescence, uHTS (AID 1777); Kappa-type opioid receptor (Homo sapiens); KOR beta-arrestin recruitment, luminescence; higher % means a stronger effect; activation, % at 10 µM; hits with a dose series show EC50 in µM; actives 0.02% (n = 280,000); in the data active = activation above about 50%, passing the limit was not always enough; also: a part of the inactive calls stands beside numbers as strong as those of hits
K1F lysis inhibition: inhibition of K1F phage lysis, E. coli UTI89, bacterial capsule biogenesis inhibitors, alamar blue (AID 488966); E. coli UTI89 K1F phage lysis, alamar blue, 2 h; higher % means a stronger effect; inhibition, % at 100 µM, or IC50 in µM where a hit was titrated; actives 0.02% (n = 340,000);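 active = phage lysis inhibition, versus mean bacterial control, above a set limit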;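 also: capsule biogenesis inhibitors block K1F phage lysis so surviving cells raise fluorescence; higher fluorescence means more inhibition of phage lysis; actives were called in the ten point dose series up to 300 µM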
Rac1 GTP hydrolysis: MgcRacGAP GTPase-activating activity inhibitors, confirmation, biochemical, ADP Hunter fluorescence; Rac GTPase-activating protein 1 (Homo sapiens); MgcRacGAP-stimulated Rac1 GTP hydrolysis, ADP Hunter fluorescence; higher % means a stronger effect; GST-tagged Rac1 F28L mutant substrate; one-dose inhibition, % at 30 µM; IC50 in µM for titrated hits; actives 0.6% (n = 340,000);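 active = first-screen hits whose inhibition reached a set limit at any dose in the follow-up dose series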;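 also: fluorescence reports GDP produced by GAP-driven GTP hydrolysis; strong numbers were not always called active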
GPR55 LPI antagonism: GPR55 antagonists blocking LPI-driven arrestin recruitment, primary screen, imaging, U2OS, beta-arrestin-GFP, LPI agonist (AID 2013). G-protein coupled receptor 55 (Homo sapiens). U2OS GPR55 beta-arrestin-GFP translocation imaging, LPI antagonism; higher % means a stronger effect. one-dose inhibition, % at 10 µM; IC50 in µM for titrated hits. actives 0.13% (n = 290,000);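 active = spots per cell inhibited over 60%, with over 100 cells counted and total cytoplasm intensity under 500,000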;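 also: U2OS cells stably carrying GPR55 and arrestin-GFP stimulated by 5 µM LPI near EC80; imaged beta-arrestin-GFP aggregate spots per cell after agonist stimulation; plate controls were LPI-stimulated DMSO wells for no effect and DMSO wells without LPI for full effect; some results filed as inactive read as strong as hits; confirmed hits need IC50 under 10 µM and bright autofluorescent wells are also inconclusive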
GPR35 antagonists: GPR35 antagonists blocking zaprinast-driven arrestin recruitment, primary screen, imaging, U2OS, beta-arrestin-GFP, zaprinast agonist (AID 2058) | G-protein coupled receptor 35 (Homo sapiens) | U2OS GPR35 beta-arrestin-GFP translocation imaging, zaprinast antagonism; higher % means a stronger effect | inhibition, % at 10 µM; hits with a dose series show IC50 in µM | actives 0.052% (n = 290,000);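 active = inhibition of at least 50% with at least 30 cells and total cytoplasm GFP at most 10,000,000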
NTR1 agonist: agonists of NTR1, primary screen, imaging, U2OS cells, beta-arrestin-GFP, high content (AID 493036). Neurotensin receptor type 1 (Homo sapiens), P30989. activation, % at 20 µM. NTR1-U2OS beta-arrestin-GFP spot imaging, agonist mode. actives 0.17% (n = 330,000);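 active = activation at or above 40% of the spot to cytoplasm intensity ratio, with at least 20 cells analyzed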;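 also: 0% = DMSO without peptide and 100% = 100 nM NTR1 peptide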
Target sequence (P30989 whole entry, looked up): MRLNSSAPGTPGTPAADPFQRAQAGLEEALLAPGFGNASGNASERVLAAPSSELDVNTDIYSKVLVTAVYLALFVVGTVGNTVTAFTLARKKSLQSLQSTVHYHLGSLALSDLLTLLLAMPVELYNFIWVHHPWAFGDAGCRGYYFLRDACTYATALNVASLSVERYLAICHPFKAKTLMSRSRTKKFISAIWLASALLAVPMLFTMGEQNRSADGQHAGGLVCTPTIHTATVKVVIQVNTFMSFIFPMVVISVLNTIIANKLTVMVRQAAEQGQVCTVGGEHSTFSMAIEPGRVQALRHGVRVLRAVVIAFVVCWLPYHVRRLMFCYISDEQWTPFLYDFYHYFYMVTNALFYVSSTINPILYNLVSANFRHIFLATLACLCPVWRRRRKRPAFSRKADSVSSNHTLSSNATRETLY
NTR1 agonist cell count 20 µM: also measured in NTR1 agonist; calls as there; cell count; measured here: cell count, cytotoxicity flag
Active calls of the source: *; [ ] = dose if it differs, or a comment. Only part of the results is shown; count on the stated rates, not on these rows.

item	Molecule	GPR55 LPI antagonism	NTR1 agonist cell count 20 µM	KOR beta-arrestin	NTR1 agonist
1	O=C(Nc1ccc2c(c1)OCCO2)c1cc2sccc2n1Cc1ccccc1	15%	57	1.3%	3.3
2	O=C(CSc1nc2c(c(=O)n1-c1ccc(F)cc1)SCC2)N1CCCC1	10%	50	1.3%	-0.2
3	COCCNC(=O)c1cc(-c2ccc(OC)c(OC)c2)on1	4%	63	0.0%	2.4
4	COc1c2occc2cc2ccc(=O)oc12	-3%	86	-2.7%	-1.2
5	COc1ccc(NC(=O)COC(=O)CCCc2c[nH]c3ccccc23)cc1OC	20%	69	3.9%	1.9
6	O=C(Nc1ccc(Cl)cc1)OC(CN1CCCCC1)C(F)(F)F (centres undefined)	9%	46	5.7%	0.5
7	O=C(N/N=C/c1cccc(Oc2ccc([N+](=O)[O-])cc2[N+](=O)[O-])c1)c1cncc(Br)c1	-2%	26	1.6%	8.5
8	CC1(C)Oc2ccc(NC(=O)c3ccco3)cc2O1	14%	38	0.8%	-1.3
9	Cc1cccc(C(=O)NNC(=O)c2cc3cc4ccccc4nc3s2)c1	-16%	61	8.4%	5.6
10	CC(C)=CCc1c(C)nc2ccccc2c1C(=O)O	-7%	53	-0.6%	0.7
11	COc1cc(C(=O)NCC(c2cccnc2)N2CCN(C)CC2)cc(OC)c1OC (centres undefined)	8%	73	0.4%	-1.5
12	O=C(NC(=S)NC1CCSC1=O)c1ccccc1Cl (centres undefined)	-1%	86	2.5%	-5.7
13	COC(=O)c1[nH]c2cc(C)ccc2c1NC(=O)CN1CCCc2ccccc21	4%	44	1.6%	-0.3
14	O=C(CCN1C(=O)c2ccccc2C1=O)N1CCN(C2c3ccccc3-c3ccccc32)CC1	7%	64	-0.7%	5.2
15	O=C(NCc1ccccn1)c1cccc([N+](=O)[O-])c1	-4%	59	13%	1.4

item	K1F lysis inhibition	Rac1 GTP hydrolysis	GPR55 beta-arrestin	GPR35 antagonists
1	0.5%	1%	-0.1%	8%
2	-2.4%[50 µM]	7%	0.0%	16%
3	-0.8%	10%	-2.3%	16%
4	1.4%	11%	-0.1%	8%
5	-1.6%	10%	-0.3%	5%
6	0.8%	-9%	-0.1%	0%
7	-0.5%	-2%	-0.1%	12%
8	0.0%	6%	-0.1%	12%
9	0.3%	1%	0.0%	-1%
10	0.3%	12%	0.6%	1%
11	0.1%	8%	0.0%	0%
12	-0.6%	9%	-0.1%	8%
13	-0.6%	5%	-0.1%	-16%
14	0.0%	3%	0.3%	5%
15	5.0%	8%	0.4%	9%

Copied from the list:
compound 2 – Rac1 GTP hydrolysis: 7%
compound 1 – K1F lysis inhibition: 0.5%
compound 5 – GPR35 antagonists: 5%

Continued:
item	Molecule	GPR55 LPI antagonism	NTR1 agonist cell count 20 µM	KOR beta-arrestin	NTR1 agonist
16	O=C(NCCN1CCOCC1)c1ccccc1[N+](=O)[O-]	12%	49	5.2%	-3.1
17	Cn1c(CCN2CCN(c3ccccc3)CC2)nc2cc(NC(=O)c3ccco3)ccc21	8%	93	3.8%	-1.9
18	COC(=O)C1=C(C(=O)c2ccc(C)cc2)C(c2ccccc2)n2nnnc2N1 (centres undefined)	20%	50	1.3%	-0.5
19	CCn1c(Cc2ccccc2)nnc1SCC(=O)c1cccc([N+](=O)[O-])c1	20%	53	0.6%	2.0
20	O=C(Nc1ccccn1)C(NS(=O)(=O)c1cccc2nsnc12)c1ccccc1 (centres undefined)	20%	101	0.5%	-1.0
21	Cc1ccc(-c2csc(Cc3nc(-c4cc5ccccc5oc4=O)cs3)n2)cc1	9%	54	1.2%	2.5
22	NS(=O)(=O)c1ccc(CCNC(=O)CSc2ccccc2)cc1	-8%	53	0.8%	1.3
23	c1ccc(-c2nc3ccccn3c2NCc2ccc3c(c2)OCO3)cc1	-10%	72	1.1%	-1.5
24	C[C@H](NC(=O)NC1CCCc2ccccc21)C(=O)O (some centres undefined)	30%	29	-2.4%	-1.2

item	K1F lysis inhibition	Rac1 GTP hydrolysis	GPR55 beta-arrestin	GPR35 antagonists
16	2.0%	10%	-0.1%	27%
17	0.3%	7%	-0.2%	-10%
18	0.8%	4%	0.0%	-11%
19	0.1%[50 µM]	10%	-0.1%	15%
20	0.5%	8%	-0.1%	4%
21	2.0%	7%	-0.1%	17%
22	1.8%	3%	-0.1%	0%
23	1.0%	11%	-0.1%	2%
24	4.6%	4%	0.0%	-11%

5 structures already listed, ordered by number of heavy atoms, falling.
item	Molecule	GPR55 LPI antagonism	NTR1 agonist cell count 20 µM	KOR beta-arrestin	NTR1 agonist
17	Cn1c(CCN2CCN(c3ccccc3)CC2)nc2cc(NC(=O)c3ccco3)ccc21	8%	93	3.8%	-1.9
20	O=C(Nc1ccccn1)C(NS(=O)(=O)c1cccc2nsnc12)c1ccccc1 (centres undefined)	20%	101	0.5%	-1.0
19	CCn1c(Cc2ccccc2)nnc1SCC(=O)c1cccc([N+](=O)[O-])c1	20%	53	0.6%	2.0
23	c1ccc(-c2nc3ccccn3c2NCc2ccc3c(c2)OCO3)cc1	-10%	72	1.1%	-1.5
16	O=C(NCCN1CCOCC1)c1ccccc1[N+](=O)[O-]	12%	49	5.2%	-3.1

item	K1F lysis inhibition	Rac1 GTP hydrolysis	GPR55 beta-arrestin	GPR35 antagonists
17	0.3%	7%	-0.2%	-10%
20	0.5%	8%	-0.1%	4%
19	0.1%[50 µM]	10%	-0.1%	15%
23	1.0%	11%	-0.1%	2%
16	2.0%	10%	-0.1%	27%

Profiles as entered above. Order of values: GPR55 LPI antagonism, NTR1 agonist cell count 20 µM, KOR beta-arrestin, NTR1 agonist, K1F lysis inhibition, Rac1 GTP hydrolysis, GPR55 beta-arrestin, GPR35 antagonists
Cn1c(CCN2CCN(c3ccccc3)CC2)nc2cc(NC(=O)c3ccco3)ccc21 reads 8%, 93, 3.8%, -1.9, 0.3%, 7%, -0.2%, -10%
O=C(NCCN1CCOCC1)c1ccccc1[N+](=O)[O-] reads 12%, 49, 5.2%, -3.1, 2.0%, 10%, -0.1%, 27%

From PubChem
